# From PubChem BioAssay
# VDR inh: blocks the human vitamin D receptor. VDR-SRC2-3 peptide fluorescence polarization, 2 h. AID 504847. Potency, µM, inactives show max response, negative = inhibition, actives largely listed as inhibitors. 400,000 compounds, 0.93% hits. P11473; active means well fitted inhibition curve with a large enough effect; inconclusive means small, poorly fitted or top-dose-only effect, or another doubt; inactive means no such curve, though single readings can be large or run the other way; further: series mostly up to about 120 µM
# Target sequence (P11473 whole entry, looked up): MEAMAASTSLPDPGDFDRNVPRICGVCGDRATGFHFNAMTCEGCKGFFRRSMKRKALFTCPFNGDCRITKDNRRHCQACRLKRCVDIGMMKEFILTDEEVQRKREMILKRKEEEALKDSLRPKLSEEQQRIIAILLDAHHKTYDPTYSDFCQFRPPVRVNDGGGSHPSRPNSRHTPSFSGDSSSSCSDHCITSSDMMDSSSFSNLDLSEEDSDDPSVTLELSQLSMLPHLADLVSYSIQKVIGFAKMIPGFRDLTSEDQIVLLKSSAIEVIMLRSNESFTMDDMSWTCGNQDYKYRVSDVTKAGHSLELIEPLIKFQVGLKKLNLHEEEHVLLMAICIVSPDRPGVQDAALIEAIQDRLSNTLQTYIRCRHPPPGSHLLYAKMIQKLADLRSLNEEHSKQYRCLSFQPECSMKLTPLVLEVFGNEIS
#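 Fluorescence polarization assay measuring small-molecule disruption of VDR binding to the coregulator peptide SRC2-3. Compounds were pin-transferred (23 nl) into the reagent mix and incubated 2 h at room temperature before reading.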
# * marks the source's active call; other numbers are inactive results; u = inconclusive; & = joins results of further samples; [ ] = remark or other dose. On the % scale 0 is the no-effect control and ±100 the full control effect; potency means the concentration at half of the fitted maximal effect. Some of the compounds tested. The share of hits here may be higher or lower than overall.
SMILES,VDR inh
Cc1ccc(C(=O)NC(=S)Nc2ccc(N3CCOCC3)cc2)cc1,-15.6%
Cc1nc(SCC(N)=O)[nH]c(=O)c1Cc1ccc(OC(C)C)cc1,-12.1%
COc1ccc(/C=C2\N=C3CCCN3C2=O)cc1,-13.3%
NNC(=O)c1ccc(Cl)cc1Cl,39.0%[activator]
CN1CCN(C(=S)c2cn(CCOc3ccccc3)c3ccccc23)CC1,-7.3%
CCC(=O)N1CCc2cc(CNS(=O)(=O)c3ccc(Br)s3)ccc21,5.8%
CC(=O)Nc1cccc(NC(=O)c2sc3ncn(CC(=O)N4CCCCC4)c(=O)c3c2C)c1,-13.3%
O=C(OCC(=O)N1CCOCC1)c1ccc(O)cc1,-12.7%
COc1ccc(-n2nc(C(=O)NCC(=O)NC3CCCCCC3)c3ccccc3c2=O)c(OC)c1,24.7%
CCOC(=O)C1CCC(=O)C1 (centres undefined),7.3%
O=C(Cn1cnc2ccccc21)N/N=C/c1ccc([N+](=O)[O-])cc1,-5.7%
Cn1nc(C(F)(F)F)c(-c2ccc(F)cc2)c1NC(=O)CSCC(=O)O,-17.3%
NC(=S)c1c(Cl)cc(C(F)(F)F)cc1Cl,1.7%
Cc1cc(C)c(S(C)(=O)=O)c(NN)n1,4.1%
Cc1cc(C)c(C)c(S(=O)(=O)N2CCC(C(=O)NC3=NCCS3)CC2)c1C,7.3%
COc1ccc(N(CC(=O)N/N=C/c2ccc(OC)cc2OC)S(=O)(=O)c2ccccc2)cc1,-7.7%
Cc1c(NC(=O)Cc2ccc(Cl)cc2)cccc1-c1nc2cccnc2s1,17.2%
COc1ccc(S(=O)(=O)N2CCOCC2)cc1NC(=O)CN1CCN(C)CC1,0.0%
Cc1cc(C(=O)CSc2nnc(-c3ccccc3)n2Cc2ccc3c(c2)OCO3)c(C)n1C,5.7%
O=C(NC1CCCCC1)C(c1ccc(F)cc1)N(CCCN1CCOCC1)C(=O)c1ccc(CN2CCOCC2)o1 (centres undefined),5.5%
N#CC1=C(N)N(c2ccccc2Sc2ccccc2)C(=O)C1,10.8%
CC(=O)c1ccc(N2CCN(C(=O)CCCn3c(=O)[nH]c4ccsc4c3=O)CC2)cc1,3.9%&1.3%
CSC(=S)N/N=C/c1ccc(Br)cc1,13.8%
CCc1ccc(Nc2cnn(C34CC5CC(CC(CC(=O)O)(C5)C3)C4)c(=O)c2Cl)cc1,-9.9%
CCN(CC)S(=O)(=O)c1cc(C(=O)Nc2cc(Cl)ccc2N2CCN(C)CC2)ccc1Cl,11.3%
COc1ccc(CCC(=O)OCC(=O)NCc2ccccc2)cc1,-15.4%
Cc1ccccc1CC1SC(N)=NC1=O (centres undefined),-15.0%
Cc1cc(C)n2c(SCC(=O)Nc3ccc(F)cc3)nnc2n1,u
O=C(c1ccc(S(=O)(=O)Nc2ccccc2F)cc1)N1CCCC1,0.7%
COc1ccc(-n2nc(C(=O)NCC(=O)N3CCN(c4ccccn4)CC3)c3ccccc3c2=O)cc1,10.7%
Cc1cc(C)c(OCC(O)CN2CCN(c3ccccn3)CC2)c(C)c1 (centres undefined),0.0%
O=Cc1cccc(Oc2ncccn2)c1,-6.6%
O=C(CN(CC1CCCO1)C(=O)CNS(=O)(=O)c1ccc(F)cc1)NC1CCCCC1 (centres undefined),2.2%
NC(=O)c1ccsc1NC(=O)COC(=O)c1ccccn1,18.7%
Cc1ccccc1NC(=O)COC(=O)CNC(=O)c1sc2ccccc2c1Cl,-9.9%
O=C(CCC(=O)Nc1ccc(Cl)cc1Cl)NNC(=O)[C@@H]1CCCC[C@@H]1C(=O)O,9.5%
CNc1ncnc2c1ncn2-c1ccccc1,-12.1%
C=CCc1cc(Cl)ccc1OCCNCCCOC,-14.9%
CCNC(=S)N1CCN(CCN2C(=O)c3cccc4cccc(c34)C2=O)CC1,15.9%
Cc1cc([N+](=O)[O-])nn1CC(=O)Nc1ccc(Cc2ccncc2)cc1,17.8%
COc1ccc(NC(=O)Nc2cccnc2)c(OC)c1,3.0%
COc1ccc(-n2ccnc2SCC(=O)NC2CCCC2)c(OC)c1,-5.9%
CCN1CCN(c2nc(NCCO)c3ccccc3n2)CC1,-0.1%
Cc1ccnc(N2CCCC(C(=O)NC3CC3)C2)n1 (centres undefined),19.2%
COC(=O)c1cc(OC)c(OC)cc1NC(=O)Nc1ccc(OC)cc1,8.8%
CCn1ncc(CN2CCC(Oc3cc(C(=O)NC4CC4)ccc3OC)CC2)c1C,6.8%
COc1ccc(-c2cc(C(=O)Nc3ccc(C#N)cc3)no2)cc1,1.6%
O=C(Cn1c(NCCO)nc2ccccc21)NCC1CCCO1 (centres undefined),-12.8%
Cc1cccnc1NC(=O)c1ccc(S(=O)(=O)NCc2ccco2)cc1,-2.1%
Cc1sc2nc(CSc3ccccc3)nc(NCCN(C)C)c2c1C,-0.6%
CCC(=O)N1c2ccccc2NC2=C(C(=O)CC(c3ccco3)C2)C1c1ccco1 (centres undefined),-4.0%
COc1ccccc1N1CCN(C(=O)C(=O)N/N=C/c2cccc(O)c2)CC1,-5.2%
COc1ccc(N(Cc2cc3ccccc3[nH]c2=O)S(=O)(=O)c2ccc(OC)cc2)cc1,-9.9%
O=C(COC(=O)c1cccc(Cl)c1Cl)NC1CCCC1,-6.7%
CCOc1ccccc1Nc1cc(C)c2cccc(C)c2n1,-16.3%
CN(C)CCCNc1ncnc2c1c(-c1ccccc1)cn2-c1ccccc1,15.8%
CCOC(=O)c1ccc(NC(=O)CC2SC(=NC)N(C)C2=O)cc1 (centres undefined),9.8%
O=C(CSc1nnc(-c2ccc(Cl)cc2)n1Cc1ccco1)NCc1ccc2c(c1)OCO2,-3.5%
CCOC(=O)C1CCN(c2c(NCc3ccc(C(=O)NCCOC)cc3)c(=O)c2=O)CC1,15.9%
O=C(c1ccccc1N(Cc1ccccc1)S(=O)(=O)c1ccccc1)N1CCOCC1,-8.1%
# Later entries
SMILES,VDR inh
CCOc1ccc(NC(=O)c2cnc(N3CCCC3)nc2C)cc1,10.4%
CC1CCCN(C(=O)CN2CCN(C(=O)c3ccco3)CC2)C1 (centres undefined),16.4%
O=C(CSc1nnc(-c2ccc(F)cc2)n1CC1CCCO1)NCc1ccco1 (centres undefined),-5.2%
NC(=S)Nn1c(-c2ccccc2)nc2ccccc2c1=O,1.8%
O=C(NNC(=O)c1cc(-c2ccc(Br)cc2)nc2ccccc12)c1csc(N2CCOCC2)n1,27.1%
CCN1CCN(c2nc3ccccn3c(=O)c2/C=C(\C#N)S(=O)(=O)c2ccccc2)CC1,-1.3%
N#C/C(=C\Nc1ccc2c(c1)OCCO2)C(=O)NCc1ccco1,1.9%
C[C@@H]1C=C[C@](Cc2ccccc2)(C(=O)NCC2CC2)N1C(=O)c1ccccc1,1.7%
CN(C(=O)CSc1nc2ccccc2[nH]1)C1CCS(=O)(=O)C1 (centres undefined),-9.3%
COc1cccc(NC(=O)CSc2nnc3[nH]c(=O)cc(-c4ccccc4)n23)c1,1.6%
CC1CC(Nc2ccccc2)=NC1(C)C (centres undefined),0.2%
COc1ccc(NC(=S)N2CCC(c3ccc(C)cc3)C2)cc1 (centres undefined),2.1%
Cc1ccccc1CNC(=O)C(=O)NCC(c1ccc2c(c1)OCO2)N1CCOCC1 (centres undefined),-4.7%
C[C@@H](O)[C@@H]1NC(=O)c2cc([N+](=O)[O-])cc(I)c2NCC[C@@H](C(N)=O)NC(=O)CNC1=O,-9.1%
Cc1cccc(C)c1N1CCN(C(=O)c2ccc3c(c2)OCO3)CC1,-16.8%
CC(=O)NCCNc1nc2c(-c3cccc(C)c3)nnn2c2ccc(Cl)cc12,-8.5%
Cn1cc(S(=O)(=O)c2ccccc2)c(=O)c2cc(F)c(N3CCCCC3)cc21,-2.7%
CCc1ccc(NC(=O)C(=O)NCCc2sc(-c3ccc(OC)c(OC)c3)nc2C)cc1,12.3%
O=C(Nc1ccccc1)Nc1ccc(Cl)nc1Cl,1.5%
N#C/C(=C(/O)C(Cl)(Cl)Cl)c1nc2ccccc2[nH]1,-10.6%
O=c1ccc2cc(S(=O)(=O)NCCCc3ccccc3)ccc2[nH]1,17.0%
CC(C)n1nnnc1-c1cccc(Cl)c1,-13.4%
CCOC(=O)C1=C(C)Nc2ncnn2C1/C=C/c1ccccc1 (centres undefined),1.3%
COc1ccc(OC)c(NC(=O)CC2SC(=Nc3ccccc3)N(CCc3ccccn3)C2=O)c1 (centres undefined),-15.2%
COc1ccc(F)cc1S(=O)(=O)NCc1ccccc1,-15.2%
C#Cc1ccc([C@H]2C=C(C(=O)NCc3nc4ccccc4[nH]3)O[C@@H](OCc3ccc(CO)cc3)C2)cc1,-7.3%
CCO[C@H]1OC(C(=O)O)=C[C@@H](C2CCCCC2)[C@@H]1CCCO,-4.3%
COC(=O)c1sc(NC(=S)NC(=O)c2ccc(C)cc2)nc1C,-16.3%
O=C(CSc1nnc(CCCN2C(=O)c3cccc4cccc(c34)C2=O)n1-c1ccccc1)N1CCN(CCO)CC1,-16.1%
Cc1cc(-c2cccs2)c2c(N)c(C(=O)c3ccc4c(c3)OCO4)sc2n1,6.9%
O=C(NNc1ccc([N+](=O)[O-])cc1)c1ccccc1Cl,2.6%
C/C(=N\N=C(/N)SC1CC(=O)N(c2ccc(Br)cc2)C1=O)c1cccs1 (centres undefined),12.3%
CNC(=O)C1CCC(=O)N1Cc1ccccc1Cl (centres undefined),-11.3%
O=S(=O)(NCC(c1cccnc1)N1CCN(c2ccccc2)CC1)c1cc(F)ccc1F (centres undefined),2.5%
O=C(Cc1cccc([N+](=O)[O-])c1)NCc1nc2cccnc2n1Cc1ccc(F)cc1,6.7%
CCOc1ccc(NC(=O)CCS(=O)(=O)c2ccc3c(c2)n(C)c(=O)c(=O)n3C)cc1,18.6%
CSc1ncc(Cl)c(C(=O)Nc2ccc(S(=O)(=O)N3CCC(C)CC3)cc2)n1,15.3%
S=C1NC2(CCCCC2)NN1c1ccccc1,-5.0%
O=C(O)C1CC=CCC1C(=O)NCc1ccc(Cl)c(Cl)c1 (centres undefined),19.9%
CCOc1ccccc1C(=O)NC1CCN(CC(=O)Nc2cc(OC)ccc2OC)CC1,-18.2%
Cc1ccc(OCC(=O)Oc2cccc(C)c2)cc1,6.8%
Cc1cc(C)n(CC(O)COCc2ccccc2)n1 (centres undefined),-1.1%
N#CCc1ccc(NC(=O)c2ccc(CN3CCc4ccccc4C3)cc2)cc1,1.4%
CCCc1cc(=O)[nH]c2nnc(SCC(=O)Nc3nnc(CC)s3)n12,-19.3%
c1ccc(N2CCN(c3ncnc4sc5c(c34)CCC5)CC2)cc1,-7.3%
Cn1c(NCCCO)nc2ccccc21,3.6%
C[C@H](NC(=O)C1CC(=O)N(c2ccc3c(c2)OCO3)C1)C(=O)NC1CCCCC1 (some centres undefined),u
O=C(Oc1ccc(N(Cc2cccs2)C2=NS(=O)(=O)c3ccccc32)cc1)c1ccccc1F,9.4%
Oc1ccccc1N=Cc1sc2ccccc2c1Cl,0.4%
O=C(c1cnn(C(=O)c2ccco2)c1)c1ccccc1O,-13.5%
Cc1ccccc1NC(=O)Cn1c(=O)n(CCc2ccccc2)c(=O)c2sc3ccccc3c21,13.3%
COC(=O)c1cc(NC(=O)CN(c2ccccc2)S(=O)(=O)N(C)C)ccc1Cl,-12.5%
CCc1nc(Sc2nnnn2-c2ccccc2)c2c3c(sc2n1)CCCC3,-9.1%
O=C(N/C(=C/c1ccco1)C(=O)N1CCOCC1)c1cccs1,-3.5%
CC(=NNC(=O)COc1cccc(C)c1)c1cccnc1,-20.4%
O=C(CSCc1ccccc1Br)Nc1ccccc1,-1.6%
CC(=O)Nc1ccc(-c2nnc(SCC(=O)c3ccc([N+](=O)[O-])cc3)o2)cc1,21.8%
Cc1csc(SCCn2c(N3CCN(c4ccccc4)CC3)nc3c2c(=O)[nH]c(=O)n3C)n1,-7.5%
Cc1nnc(NC(=O)C2CCN(S(=O)(=O)c3ccc(Cl)cc3)CC2)s1,-5.3%
O=C(NCCc1ccc(Cl)cc1)C1=CC=CN2CCS(=O)(=O)N=C12,-3.6%
# The list continues.
SMILES,VDR inh
CN(Cc1ccc(OC(F)F)cc1)C(=O)c1cccc(S(=O)(=O)N2CCN(Cc3ccccc3)CC2)c1,-5.8%
CCOc1cc(C(=O)NCCOC)cc(OCC)c1OCC,-17.6%
COC(=O)c1cn(C(=O)c2ccc(Br)o2)c2ccccc12,-6.8%
Cc1nc(N2CCCC2)c2nnn(Cc3ccccc3Cl)c2n1,2.1%
CC(C)c1ccc(O)c(NC(=S)NC(=O)CCc2ccccc2)c1,5.3%
COc1cccc(C2=NN(S(C)(=O)=O)C(c3cccs3)C2)c1 (centres undefined),-4.4%
COc1cc(/C=N/NC(=O)c2cccnc2)ccc1OCC(=O)Nc1ccc(C)cc1,13.2%
COc1ccc(-c2csc(NC(=O)C3=COCCO3)n2)cc1OC,9.4%
Cc1cc(C(F)(F)F)nn1CC(=O)N(C)c1ccccc1,-4.2%
